High-throughput results: PubChem BioAssay, National Center for Advancing Translational Sciences (NCATS)
Six1-Eya2 blk = qHTS Assay for Inhibitors of the Six1/Eya2 Interaction. actives 0.56% (n = 360,000). activity change, % (concentration not given with the values). Homeobox protein SIX1 (Homo sapiens) + Protein phosphatase EYA2 (Homo sapiens), …. AlphaScreen GST-Six1/His-Eya2 binding, biochemical; active compounds read low; control for the full effect not named in the record. AID 651725, 2012; in the data active = activity change below about -65%; inconclusive = about -30% to -65%; inactive = above about -30%; further: on the % scale 0 is the no-effect control and ±100 the full control effect
Target sequence (O00167 whole entry, looked up): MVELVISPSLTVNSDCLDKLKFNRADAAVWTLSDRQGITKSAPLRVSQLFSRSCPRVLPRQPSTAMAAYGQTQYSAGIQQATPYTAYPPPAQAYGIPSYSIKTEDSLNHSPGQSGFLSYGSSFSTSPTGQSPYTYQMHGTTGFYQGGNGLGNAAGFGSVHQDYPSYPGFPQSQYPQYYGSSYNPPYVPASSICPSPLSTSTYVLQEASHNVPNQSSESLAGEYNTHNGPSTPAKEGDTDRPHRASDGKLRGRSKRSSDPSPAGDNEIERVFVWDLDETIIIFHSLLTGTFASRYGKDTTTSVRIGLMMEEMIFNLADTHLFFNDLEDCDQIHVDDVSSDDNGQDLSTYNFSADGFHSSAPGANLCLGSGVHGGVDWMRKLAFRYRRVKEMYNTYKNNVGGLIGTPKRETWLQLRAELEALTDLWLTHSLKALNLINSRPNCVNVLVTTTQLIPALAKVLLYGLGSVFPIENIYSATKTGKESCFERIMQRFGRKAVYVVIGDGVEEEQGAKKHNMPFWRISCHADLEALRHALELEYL
Target sequence (Q15475 whole entry, looked up): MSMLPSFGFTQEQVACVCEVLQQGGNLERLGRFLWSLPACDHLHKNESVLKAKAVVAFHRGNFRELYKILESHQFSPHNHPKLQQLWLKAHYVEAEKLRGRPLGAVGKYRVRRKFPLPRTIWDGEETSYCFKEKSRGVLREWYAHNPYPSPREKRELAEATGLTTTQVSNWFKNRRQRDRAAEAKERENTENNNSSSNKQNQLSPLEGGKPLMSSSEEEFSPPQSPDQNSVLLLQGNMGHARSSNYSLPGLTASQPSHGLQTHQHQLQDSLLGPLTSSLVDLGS
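Compounds are tested against tagged Six1 and Eya2 proteins bridged by glutathione donor and nickel acceptor beads; after a one-hour incubation at 37 °C without light, AlphaScreen emission is recorded.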
D2 PAM = Beta-Arrestin HTS for Positive Allosteric Modulators of the Human D2 Dopamine Receptor: Potentiators. D(2) dopamine receptor (Homo sapiens), P14416. DiscoveRx D2 beta-arrestin cells, luminescence, 90 min; 100% = 57 uM dopamine signal. potentiation, % (test concentration not listed). actives 0.23% (n = 360,000); active = potentiation of 50% or more; inconclusive = 30% to 50%; inactive = 30% or less;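 further: compound concentration not given in the record; tested on top of an EC20 dose of dopamine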
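PathHunter beta-arrestin assay in DiscoveRx D2 cells. Compounds were added with an EC20 of dopamine (50 nM final) for 90 min at 37 deg C. Luminescence was read 1 h after detection reagent, with 57 uM dopamine as the EC100 control.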
TRPML1 agonist = qHTS for Agonists of the Human Mucolipin Transient Receptor Potential 1 (TRPML1) | Mucolipin-1 (Homo sapiens), Q9GZU1 | TRPML1-expressing cells, Ca2+ dye fluorescence, FDSS; host cell line not named in the record; reference of the full effect not given here | activation, % (concentration not given with the values) | actives 0.12% (n = 410,000) | AID 624414, 2012; in the data active = activation above about 50%; inconclusive = about 30% to 50%; inactive = below about 30%; further: 0% is about no effect; the text of the record puts the active cut at 80%
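TRPML1-DL cells, Tet-induced overnight (~16 h, 37 degrees C), loaded 45-90 min at room temperature with Ca8 no-wash calcium dye plus quencher. FDSS fluorescence: 10 s baseline, compound pin-transfer, 110 s agonist read, then EC80 54-4 (4uM final) and 110 s antagonist read.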
D2 agonist = Beta-Arrestin HTS for Positive Allosteric Modulators of the Human D2 Dopamine Receptor: Agonists | actives 0.084% (n = 360,000) | activation, % (concentration not given with the values) | AID 624465, 2012 | DiscoveRx PathHunter D2 beta-arrestin, luminescence, 90 min; 100% = 57 uM dopamine signal | D(2) dopamine receptor (Homo sapiens), P14416; in the data active = activation above about 40%; inconclusive = about 15% to 40%; inactive = below about 15%; further: compound concentration not given in the record; the text of the record calls up to 30% inactive
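DiscoveRx PathHunter D2 beta-arrestin cells (2,100/well) attached overnight, then compound-stimulated 90 min at 37 C in HBSS/10 mM HEPES/0.1% Tween-20 buffer; beta-galactosidase complementation read by luminescence after 1 h at ambient temperature. Dopamine 57 uM final (EC100) as control.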
PINK1 expr mod = A Quantitative High throughput Screen to Identify Chemical Modulators of PINK1 Expression | actives 0.2% (n = 410,000) | Potency, µM (series often up to 76.6 µM), for the others: at the highest dose activation (PINK1 increase), actives largely listed as activators | PINK1 immunofluorescence, high-content cytometry, 24 h | AID 624263, 2012; active = well fitted activation curve with a large enough effect; inconclusive = small, poorly fitted or top-dose-only effect; inactive = flat fitted curve, though single readings scatter; cell line not stated here;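 further: potency means the concentration at half of the fitted maximal effect; % of control where 0% means no effect; nearly all actives have a fitted effect of over 65% in size; a mitochondrial uncoupler was the plate control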
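Readout is PINK1 immunofluorescence, quantified alongside mitochondrial, cell and nuclear markers by laser-scanning microplate cytometry. Cells from a stable line were exposed to compound titrations (5 concentrations) for 24 hours, with CCCP controls.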
TRPML1 inh = qHTS for Inhibitors of the Human Mucolipin Transient Receptor Potential 1 (TRPML1); actives 0.02% (n = 390,000); TRPML1-inducible cells, Ca2+ dye fluorescence, FDSS; active compounds read low; inhibition of EC80 agonist-evoked calcium signal; AID 624415, 2012; activity change, negative = inhibition, % (test concentration not listed); Mucolipin-1 (Homo sapiens), Q9GZU1; in the data active means activity change below about -50%; inconclusive means about -30% to -50%; inactive means above about -30%;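 further: stimulus is agonist 54-4 at its EC80 concentration; on the % scale 0 is the no-effect control and ±100 the full control effect; compound concentration not given in the record; the text of the record puts the active cut at -80%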
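Tet-induced TRPML1-DL cells loaded with Ca8 no-wash calcium dye were read kinetically on FDSS. Compound addition was followed by EC80 agonist 54-4 (4 uM final); inhibition was read over 110 s.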
The depositor's hits bear a star; ? = inconclusive; / = no result given; [ ] = remark or other dose.

SMILES	Six1-Eya2 blk	D2 PAM	TRPML1 agonist	D2 agonist	PINK1 expr mod	TRPML1 inh
CCOC(=O)C1=CCC(c2ccc(C)cc2)N(S(=O)(=O)c2ccc(C)cc2)C1 (stereo not given)	26	-6	4.1	-4.0	0.2%	75
O=C(O)/C(=N/NC(=O)c1ccc(Cl)cc1)c1ccccc1	6	-8	1.3	-1.8	0.0%	-5
CC[C@@H](C)[C@H](NC(=O)Cc1c(C)c2c(cc(C)c3c(C)coc32)oc1=O)C(=O)O	-7	-3	1.0	-0.2	2.1%	16
Cc1ccnc2nc(C(=O)OCC(=O)N3CC(C)CC(C)C3)nn12 (stereo not given)	5	3	0.5	-1.9	-3.4%	24
C=CCn1cccc(C(=O)Nc2ccc(OC)cc2OC)c1=O	-8	-8	-1.1	-2.3	-0.1%	-5
O=C(NCCc1ccccc1)c1ccc(NS(=O)(=O)c2ccc3[nH]c(=O)[nH]c3c2)cc1	0	-7	0.3	-0.5	-1.2%	-13
COc1ccc(CCNC(=O)COC(=O)c2ccc(N3CCCC3=O)cc2)cc1	1	-1	-0.4	5.0	4.8%	-2
Cc1ccc(F)cc1NC(=O)CSc1nc(-c2cccs2)cc(C(F)(F)F)n1	/	/	1.6	/	17%	21
CC(=O)C1=C(O)CC(c2ccccc2)CC1=NCCc1c(C)[nH]c2ccccc12 (stereo not given)	-1	-4	-0.1	-2.5	7.1%	0
COc1cc(/C=C/c2ccc(/C=C/c3cc(OC)c(OC)c(OC)c3)cc2)cc(OC)c1OC	26	-11	-0.6	-5.1	-6.2%	-5
CCCS(=O)(=O)N1CCC(C(=O)NCCOC)CC1	/	/	0.7	/	-5.0%	68
Clc1ccc(C2=Nc3cc(Cl)ccc3OC2)cc1	4	-12	0.5	-4.9	8.1%	-27
Clc1ccc(CNc2ncnc3[nH]ncc23)c(Cl)c1	2	-1	2.1	1.7	3.6%	-7
CC1CCCC(NC(=O)CCn2c(=S)oc3ccccc32)C1C (stereo not given)	10	2	2.4	0.9	6.9%	-8
COc1ccccc1C(=O)NC(=O)COC(=O)C1CC2CCCC(C1)C2=O (stereo not given)	2	9	0.4	-3.3	-1.1%	-13
O=C(Nc1ccccc1)c1[nH]ncc1[N+](=O)[O-]	-6	15	0.0	-3.0	-1.9%	-4
COc1ccc(Cc2nc3ccc(S(=O)(=O)N4CCOCC4)cc3[nH]2)cc1OC	-1	4	-0.3	2.0	-3.6%[38.3 µM]	10
Cc1ccc(OCC(=O)NC(C)c2ccccc2)cc1C (stereo not given)	-2	27	/	-1.1	0.0%	/
Brc1cc(Br)c2nc(-c3ccc(N4CCOCC4)cc3)ccc2c1	24	-6	0.3	-0.4	?	13
COCC1COS(=O)(=O)NC1(C)C (stereo not given)	2	-13	-0.3	-1.3	0.6%	-4
O=C(CCN1CCN(C(c2ccccc2)c2ccccc2)CC1)N/N=C/c1ccc(O)cc1	-26	-27	0.8	-3.1	2.8%	-4
Cc1nnc(SCC(=O)Nc2sccc2C(N)=O)s1	-4	-2	-0.3	-1.7	-0.8%	9
CC(C)=CCC/C(C)=C/C=N/NC(=O)c1cccc([N+](=O)[O-])c1	5	0	1.3	-0.2	1.3%	-2
CN=c1scc(-c2ccco2)n1/N=C/c1ccc(O)c(O)c1	?	27	2.6	49*	25%	0
CCCCCCN1C[C@@H](n2cc(-c3ccc(F)cc3)nn2)[C@H](O)C[C@@H]1c1ccc(Cl)cc1	2	-2	0.0	-7.8	?	52
Cc1c(C)n2c(SCC(=O)N3CC(C)OC(C)C3)nnc2[nH]c1=O (stereo not given)	10	0	1.3	-6.0	-0.6%	-1
CCOc1cc(NC(=S)NCCCOC)c(OCC)cc1NC(=O)c1cccs1	-13	-24	1.6	-4.6	13%	21
CCOc1ccc(NCc2cccn2-c2nnc(N3CCC(C(=O)NCCCN4CCCCC4)CC3)s2)cc1	-21	-4	-0.1	-0.9	3.9%	-11
C/C(=N\NC(=O)c1ccc2c(c1)OCO2)c1ccc2c(c1)OCO2	-2	-2	-0.1	-3.3	3.9%	3
CSc1ccccc1NC(=O)c1cnc2sc(C)cn2c1=O	4	16	-0.6	0.9	5.8%	13
COc1ccc(C(OCC(O)CNCCc2ccc(S(N)(=O)=O)cc2)c2ccc(OC)cc2)cc1 (stereo not given)	1	-11	0.4	-2.6	5.4%	-7
CC(C)CCNC(=O)c1ccc2c(c1)N(Cc1ccccc1F)C(=O)c1ccccc1S2=O (stereo not given)	/	/	0.1	/	0.2%	-8
NC(=O)[C@@H]1CCCNc2c(F)cc([N+](=O)[O-])cc2C(=O)N[C@@H](CO)C(=O)N[C@@H](Cc2ccc(O)cc2)C(=O)N1	6	-10	0.0	-1.5	0.6%	-9
COc1ccc(NC(=O)C(C)(C)Oc2ccc(Cl)cc2)cn1	0	-18	2.2	-0.3	0.0%	-22
CCc1ccc(C(C)NC(=O)c2ncn[nH]2)cc1 (stereo not given)	-6	-23	0.6	-1.2	2.1%	-2
N#Cc1cc(C(=O)c2ccccc2O)cn(-c2nccs2)c1=O	-24	-26	64*	-3.4	14%	-23
COc1ccccc1CNC(=O)COc1ccc(Br)c(C)c1	9	0	2.9	-2.4	0.7%	6
CCOc1ccccc1C(=O)Nc1nncs1	-28	-3	0.4	-4.0	/	1
COc1ccc(CCNc2oc(COc3ccccc3F)nc2C#N)cc1	-19	-6	0.6	-0.6	7.8%	8
Cc1ccccc1N1CCN(Cc2cc3c(cc2[N+](=O)[O-])OCO3)CC1	-10	-41	/	4.7	3.6%	/

Retrieved one by one from the entries so far (6):
SMILES	Six1-Eya2 blk	D2 PAM	TRPML1 agonist	D2 agonist	PINK1 expr mod	TRPML1 inh
O=C(O)/C(=N/NC(=O)c1ccc(Cl)cc1)c1ccccc1	6	-8	1.3	-1.8	0.0%	-5
CC(=O)C1=C(O)CC(c2ccccc2)CC1=NCCc1c(C)[nH]c2ccccc12 (stereo not given)	-1	-4	-0.1	-2.5	7.1%	0
Cc1ccc(F)cc1NC(=O)CSc1nc(-c2cccs2)cc(C(F)(F)F)n1	/	/	1.6	/	17%	21
COc1ccc(Cc2nc3ccc(S(=O)(=O)N4CCOCC4)cc3[nH]2)cc1OC	-1	4	-0.3	2.0	-3.6%[38.3 µM]	10
COc1ccc(NC(=O)C(C)(C)Oc2ccc(Cl)cc2)cn1	0	-18	2.2	-0.3	0.0%	-22
COc1ccc(C(OCC(O)CNCCc2ccc(S(N)(=O)=O)cc2)c2ccc(OC)cc2)cc1 (stereo not given)	1	-11	0.4	-2.6	5.4%	-7

Following part.
SMILES	Six1-Eya2 blk	D2 PAM	TRPML1 agonist	D2 agonist	PINK1 expr mod	TRPML1 inh
O=C(C1CCCN(S(=O)(=O)c2ccccc2)C1)N1CCN(c2ncccn2)CC1 (stereo not given)	-1	-6	1.7	-1.0	-0.9%	19
CC(=O)N1CCc2cc(S(=O)(=O)NCC(=O)NCc3ccc(F)cc3)ccc21	6	3	0.2	-2.4	0.6%	13
COc1ccc(O)c(C(=O)c2cnc3nc4ccccc4n3c2)c1	1	16	1.5	1.7	28%	-8
Cc1ccc(-c2noc(CN(C(=O)c3ccc4c(c3)OCO4)C(C)C)n2)cc1	-4	-3	4.3	2.4	1.2%	21
Cc1ccccc1C(=O)NC1CC2CCCC(C1)N2CC(C)C (stereo not given)	8	-7	-0.4	-3.2	-0.1%	-13
Cc1ccc(C(=O)NC(C)C2CC3CCC2C3)cc1 (stereo not given)	14	-9	1.7	-0.3	2.4%	1
Cc1nc(NC(=O)CSc2nnc(C)n2CC2CCCO2)sc1C (stereo not given)	3	-12	0.5	-0.7	-0.2%	-13
COc1ccc(-c2nnc(SCc3nnc(-c4ccccc4)o3)n2-c2ccccc2)cc1	1	-4	-1.0	-0.7	0.4%[38.3 µM]	15
CN1CCN(C(=O)c2cc3nc(-c4ccco4)cc(C(F)(F)F)n3n2)CC1	-12	-13	-0.4	-7.2	-0.1%	16
Cc1nc(NCCN2CCOCC2)c2nnn(Cc3c(F)cccc3Cl)c2n1	0	2	3.7	-1.7	-0.4%[38.3 µM]	-18
COc1cc(/C=N/NC(=O)c2c(C)nnn2-c2nonc2N)ccc1O	-20	-4	0.1	-0.9	5.5%	16
COCCn1c(N)c(N(Cc2ccccc2)C(=O)c2ccc(N3CCCC3=O)cc2)c(=O)[nH]c1=O	7	-5	1.5	-2.0	1.4%	9
O=C(NCCc1ccccc1)C1Cc2c(-c3ccc(Cl)cc3)ccnc2O1 (stereo not given)	10	-14	0.6	3.9	-0.5%	5
Cc1ccccc1OCC(O)CNC1CCCC1 (stereo not given)	-8	-13	0.3	1.3	1.6%	-4
Cc1cccc(Nc2ncc3c(n2)CC(C)CC3=O)c1 (stereo not given)	-6	2	0.3	-4.2	8.1%	4
COc1cc(C(=O)Nc2ccc(S(=O)(=O)Nc3cnc4ccccc4n3)cc2)cc(OC)c1OC	-7	-1	-0.5	1.1	2.6%	3
O=C(NCc1ccco1)C1CCN(c2nc3ccccc3n2Cc2ccccc2F)CC1	-18	-4	0.0	-0.2	1.8%	27
COC(=O)C1=C(O)/C(=C\c2ccc(CNC(=O)C(=O)Nc3ccc(C)c(C)c3)o2)N=C1C	2	-11	2.1	9.5	-1.0%	26
CCOc1ccccc1NC(=O)COc1coc(CN2CCc3ccccc3C2)cc1=O	-4	-22	1.0	-0.2	2.2%	3
OC[C@@H]1CN(Cc2cccc(C(F)(F)F)c2)C[C@H](n2cnc3c(NCc4ccco4)ncnc32)O1	-14	11	0.1	12	3.2%	/
O=C(NCCN1CCN(C(=O)c2cccc(Br)c2)CC1)C(=O)Nc1ccc(Br)cc1	-14	-9	0.5	-1.5	2.7%	17
COc1ccc(C(=O)NCc2nnc(SCC(=O)c3ccccc3)o2)cc1	3	-9	1.1	-2.7	1.1%	-9
O=C(CCCN1CCC(O)(c2ccc(Br)cc2)CC1)c1ccc(F)cc1	5	-33	13	-3.9	0.1%	-2
COC(=O)Nc1ccc(N2CCOCC2)c(S(=O)(=O)N2CCOCC2)c1	2	-6	-0.1	-1.4	-0.9%	23
CCC(=O)Nc1ccc(C(=O)CSc2nnc(-c3ccccc3F)n2C2CC2)cc1	0	10	-0.8	0.8	-1.0%	-4
CCC(CC)c1nnc(NC(=O)c2cc([N+](=O)[O-])ccc2N2CCOCC2)s1	-4	-7	-0.1	-1.9	2.5%	12
